Vif A3G: inhibitors of Vif binding to APOBEC3G peptide, primary screen, biochemical, TR-FRET, GST-Vif 1-94, biotin-A3G peptide, dose response retest (AID 1117319). Virion infectivity factor (Human immunodeficiency virus type 1 group M subtype B (isolate …. TR-FRET GST-Vif / biotin-A3G peptide binding; higher % means a stronger effect; test concentration not given here; strong numbers were not always called active. one-dose inhibition, %; IC50 in µM for titrated hits. 0.57% of 260,000 active;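 active = above the screen mean plus three standard deviations and confirmed in dose response; inconclusive = results disagree or hit not tested in dose response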;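 note: Vif residues 1-94 fused to GST binding biotinylated APOBEC3G peptide 110-148; 0% = full assay without inhibitor and 100% = GST in place of GST-Vif; retest series ran down from 100 µM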
Bfl-1 A1 inh: caspase 3/7 activation in MEF A1-2A-BIM cells, primary screen, A1 inhibitor project, cell-based, luminescence, HTS; caspase activation, % (no concentration beside the values); Caspase-Glo 3/7 luminescence, 3 h; percent of clofoctol response, vehicle zero; AID 2462, 2010; 0.066% of 330,000 active;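 active = over half of replicate activation scores above 10%, or exactly half above 10 with the replicate mean above 10; inconclusive = replicate mean below 10 yet half the replicates above 10; inactive = over half of replicates below 10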;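 note: wells of about 30 µL received 50 nL stock; many hits fall short of the cut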
RanGTP-Imp inh: inhibitors of RanGTP-importin-beta interaction, primary screen, biochemical, FRET, CFP-Ran, YFP-importin-beta, homogeneous; Ran GTPase (GTP-bound) - importin-beta complex; cell-free CFP-Ran/YFP-importin-beta FRET ratio; inhibition, % (concentration not given with the values); 1.1% of 300,000 active; AID 2216, 2009;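 active = most replicates above 15%; inconclusive = exactly half above 15%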;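 note: 0% = DMSO wells and 100% = Ran loaded with GDP instead of GTP; wells of about 40 µL received 100 nL stock; the first replicate is given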
AF4-AF9 inh: inhibitors of AF4 peptide binding to AF9, primary screen, biochemical, AlphaScreen, biotin-AF4 peptide, FLAG-AF9, single point; Protein AF-9 (Homo sapiens), P42568; inhibition, % at 10 µM; 0.47% of 350,000 active;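 active = every replicate reaching a set inhibition limit, whatever the replicate mean, cut at about 25% in these data; inconclusive = mean inhibition reaches that limit but some replicates miss it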;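 note: 0% = plate neutral control median and 100% = total signal loss; the record names both 10 and 1 µM as test concentration; the first replicate is given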
Target sequence (P42568 whole entry, looked up): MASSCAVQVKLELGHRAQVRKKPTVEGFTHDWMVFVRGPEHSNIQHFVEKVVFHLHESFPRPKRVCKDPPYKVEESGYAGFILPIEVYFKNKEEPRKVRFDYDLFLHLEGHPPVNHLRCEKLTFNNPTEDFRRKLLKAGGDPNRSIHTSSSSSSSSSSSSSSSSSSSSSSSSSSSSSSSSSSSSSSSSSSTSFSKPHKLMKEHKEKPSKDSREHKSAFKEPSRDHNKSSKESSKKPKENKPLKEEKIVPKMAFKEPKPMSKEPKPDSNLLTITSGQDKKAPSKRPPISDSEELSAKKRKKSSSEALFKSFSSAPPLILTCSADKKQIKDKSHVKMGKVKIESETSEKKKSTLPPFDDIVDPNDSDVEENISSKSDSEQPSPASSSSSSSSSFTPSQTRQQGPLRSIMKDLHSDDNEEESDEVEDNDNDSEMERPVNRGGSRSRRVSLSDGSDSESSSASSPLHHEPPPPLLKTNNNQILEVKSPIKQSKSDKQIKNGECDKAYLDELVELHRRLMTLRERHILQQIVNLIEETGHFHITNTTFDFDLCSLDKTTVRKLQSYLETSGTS
Calb FLC: C. albicans growth inhibition with fluconazole, primary screen, CaCi-2 strain, Alamar Blue fluorescence; 0.57% of 300,000 active; growth inhibition, % (test concentration not listed); C. albicans CaCi-2 (fluconazole-resistant clinical isolate) + fluconazole, 48 h;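 active = most replicates above 75%; inconclusive = exactly half above 75%; inactive = most below 75%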;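 note: all wells also contain fluconazole at 8 µg/ml as a sub-toxic cotreatment; 0% = median of DMSO wells and 100% = median of geldanamycin control wells; wells of about 8 µL received 7.5 nL stock; the first replicate is given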
Beta cell apopt: inhibitors of cytokine-induced beta cell apoptosis, primary screen, luminescence; INS-1E cytokine-induced death, ATP luminescence, 48 h; percent of positive-control rescue, neutral wells zero; protection from apoptosis, % (concentration not given with the values); 0.8% of 300,000 active; AID 435005, 2010;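 active = all replicates at 75% or more, or half of them and the mean; inconclusive = half reach 75% but not the mean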;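 note: 0% = cytokine-treated negative control wells and 100% = positive control rescue; higher means more ATP so stronger rescue from cytokine killing; wells of about 40 µL received 100 nL stock; the first replicate is given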
T cruzi inh: inhibitors of intracellular T. cruzi growth, primary screen, luminescence, NIH3T3 host cells; T. cruzi beta-gal in NIH3T3, 90 h; inhibition, % (concentration not given with the values); 1.4% of 300,000 active;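 active = mean inhibition across valid replicates above about 55%, limit read from the data; inconclusive = mean below that limit but half or more replicates reach it; inactive = mean below it, under half of replicates reach it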;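 note: signal also drops with host cell toxicity which is not excluded here; 0% = plate median of DMSO wells and 100% = zero luminescence signal; higher percent means less beta-gal luminescence so fewer parasites; stock transfer was 50 nL into about 50 µL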
rRNA inh HTS: reduced GFP signal of wild-type E. coli, primary screen, bacterial rRNA inhibitor project, GFP/RFP fluorescence, OD600, single point; AID 720706, 2013; 1.6% of 350,000 active; GFP signal change (wild-type ribosome), % (no concentration beside the values); E. coli WT GFP vs humanized-ribosome RFP mutants, 24 h; active compounds read low; DMSO median 0, no signal -100;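 active = significant combined selectivity score with lowered wild-type GFP, culture density cut under 30%, mutant RFP and density less affected; inactive = any of these conditions unmet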; note: one replicate is shown; some compounds called inactive have numbers as strong as hits
rRNA inh HTS OD600: further read-out of rRNA inh HTS, marked with its call; OD600 change, %; measured here: OD600 growth;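 optical density of the mix in the first replicate; 0 = DMSO median and -100 = no signal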
rRNA inh HTS RFP: second read-out of rRNA inh HTS, no call of its own (marks repeat the call); RFP signal change, %; measured here: RFP humanized mutant strains;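 first replicate; 0 = DMSO median and -100 = no signal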
* marks the source's active call; other numbers are inactive results; ? = inconclusive; · = not tested or not shown.

#	Molecule	Vif A3G	Bfl-1 A1 inh	RanGTP-Imp inh	AF4-AF9 inh	Calb FLC	Beta cell apopt	T cruzi inh	rRNA inh HTS	rRNA inh HTS OD600	rRNA inh HTS RFP
1	CCOc1ncccc1C(=O)OCC(=O)NCc1ccc2c(c1)OCO2	·	0.6	1.9	-0.4	-1	-4	-2	-6	-13	-2.2
2	COc1ccc(-n2c(Cc3cccn3C)nnc2SCC(=O)Nc2cccc(F)c2)cc1	3%	0.3	2.1	3.1	1	1	-12	3	1	1.5
3	Cc1cc(C)nc(N/N=C/c2cccc([N+](=O)[O-])c2)n1	6%	-0.7	2.2	0.3	13	-1	-21	0	5	0.9
4	CN(NC1OC(=O)c2ccccc21)c1ncc(C(F)(F)F)cc1Cl (centres undefined)	·	0.6	4.7	·	3	-2	-3	7	8	0.8
5	N#Cc1cccc(NC(=O)NCCc2c[nH]c3ccccc23)c1	·	0.0	3.7	3.9	-1	1	-5	-24	-41	-5.4
6	CCCc1ccc(OC(=O)c2ccc(O)cc2Cl)cc1	-1%	-3.0	-2.0	-1.4	48	13	30	-59	-78	-22
7	CC(NC(=O)c1ccco1)C(=O)N1CCCCC1 (centres undefined)	·	-0.5	2.8	-0.6	3	-4	2	7	2	0.1
8	O=C(Oc1ccc(Cl)c2cccnc12)c1cccnc1	·	0.0	1.7	-2.2	-15	·	-2	-4	1	-0.2
9	CC1(C)CC(=O)C=C(Nc2ccccc2N)C1	6%	0.2	-7.2	-3.8	-8	-3	-7	15	6	21
10	Brc1ccc(-c2noc(COc3ccc4c(c3)CCC4)n2)o1	7%	0.2	6.0	-0.2	0	-4	-13	-1	8	3.9
11	CCOC(=O)N1CCN(C(=O)c2cn(CC)c3ccc(S(=O)(=O)N4CCOCC4)cc3c2=O)CC1	·	0.6	1.1	1.1	-4	7	-11	8	8	-0.4
12	CCC(C)(C)NC(=O)C(c1ccco1)N(C(=O)c1csnn1)c1cccc(F)c1 (centres undefined)	-4%	-0.1	3.1	·	2	3	?	·	·	·
13	CC1(OC(=O)CCc2ccccc2)C(=O)C=C2C=C(c3ccc(C#N)cc3)N(C3CCCCC3)C=C2C1=O (centres undefined)	·	-0.8	-1.6	·	49	-4	23	4	3	-2.4
14	Cc1ccc(C(=O)N/C(=C\c2ccc(-c3ccccc3[N+](=O)[O-])o2)C(=O)NCCCN(C)C)cc1	·	1.4	0.0	13	11	4	16	12	3	6.2
15	C[C@H](C(O)c1ccccc1)N(C)C(=O)CN (some centres undefined)	·	1.1	2.7	-8.5	-4	4	-7	20	22	-0.5
16	c1ccc(CSc2ncnc3ccccc23)cc1	·	1.2	0.9	-22	-15	-1	1	-53	-78	-24
17	CC(=O)Nc1ccc(NC(=O)Cn2c(=O)n(-c3ccc(C)cc3)c(=O)c3oc4ccccc4c32)cc1	-12%	0.1	-1.9	-5.2	8	-2	-6	12	1	0.7
18	COC(=O)CCc1nc2c(C#N)c(-c3ccc(Cl)cc3)ccn2n1	8%	0.4	-3.2	-4.3	24	-1	-4	-8	-5	-1.6
19	CCOC(=O)N1CCN(C(=O)c2cnsn2)CC1	-2%	-0.3	-3.4	·	4	1	-4	·	·	·
20	O=C(Cc1ccccc1Cl)NCCCn1ccnc1	2%	0.0	?	·	-1	1	12	·	·	·
21	CC(C)c1nc(SCC(=O)Nc2ccc3c(c2)OCCO3)c2c(=O)n(C)c(=O)n(C)c2n1	0%	·	0.2	-2.4	1	0	-14	8	10	-7.7
22	CSc1nc2c(cc1C#N)CCC2	4%	-0.3	1.2	-0.8	1	1	-8	3	3	1.1
23	COc1ccc(CNc2ncnc(N)n2)cc1	77%	0.1	2.9	·	7	-2	-10	11	6	1.0
24	C/C(=N/NC(=O)c1cc(C)[nH]n1)c1ccco1	13%	-2.1	0.9	-7.2	-7	-2	-23	17	8	2.2
25	CCO[C@@H]1OC(C(=O)N2CCOCC2)=C[C@H](C2CC2)[C@H]1CCCO	·	-1.4	0.6	0.3	-1	-3	-11	18	6	-6.2
26	CCOC(=O)c1c(-c2cccc3ccccc23)csc1NC(=O)C1C2CCC(O2)C1C(=O)O (centres undefined)	2%	1.5	2.0	-3.2	0	-11	2	·	·	·
27	O=C(CN1C(=O)S/C(=C\C=C\c2ccccc2)C1=O)Nc1ccccc1C(=O)O	-7%	-0.2	5.2	1.9	0	1	-3	-30	-40	-12
28	C=CCc1cc(Cl)ccc1OCCNCCN1CCOCC1	?	0.7	0.0	1.2	5	1	73*	7	-14	1.9
29	Cc1nn(C(C)C(=O)NCc2ccccc2Cl)c(=O)c2c1sc1ccccc12 (centres undefined)	-56%	0.9	-1.0	·	-8	7	18	·	·	·
30	O=C(NN=C1CCCC1)c1cc(-c2ccc(F)cc2)nc2ccccc12	6%	0.7	?	-0.5	16	3	-24	20	11	2.3
31	N#Cc1nc(-c2ccc(OCc3ccccc3)cc2)oc1NCCCN1CCOCC1	25%	-0.5	0.0	·	22	-3	-6	·	·	·
32	CCC(=O)c1cn(CC(=O)Nc2cccc(OC)c2)c2ccccc12	·	0.7	6.9	-1.6	4	6	-1	-2	1	6.0
33	CCOc1cc(-c2noc(CCC(=O)N3CCOCC3)n2)ccc1OC	5%	0.4	2.5	·	-39	-7	4	·	·	·
34	O=C(Cc1ccc(S(=O)(=O)N2CCOCC2)s1)N(Cc1ccccc1)c1ccccc1	-12%	-0.9	-1.1	-2.4	-1	-11	12	-9	-19	2.9
35	COc1ccc(NC(=S)Nc2ccc(S(=O)(=O)N3CCOCC3)cc2)c(OC)c1	·	2.2	0.9	5.1	-2	-7	7	4	-3	-4.7
36	COc1ccc(N(CC(=O)N2CCN(c3cc(C)ccc3C)CC2)S(=O)(=O)c2c(C)noc2C)cc1	0%	-1.7	-0.2	-1.9	6	-4	19	16	14	1.3
37	O=C(Cn1nc(C(=O)O)c2ccccc2c1=O)NCc1ccco1	?	0.1	-0.6	-0.7	21	-2	-14	23	16	-0.3
38	O=C(/C=C/c1ccco1)N1CCN(c2ccccc2)CC1	12%	0.5	0.7	-11	16	1	-11	·	·	·
39	CCn1c(SCC(=O)OC)nnc1-c1ccccc1	-5%	0.2	1.8	-3.5	-4	-7	-7	15	14	0.1
40	O=C(Nc1cnn(Cc2ccc(F)cc2)c1)C(c1ccccc1)c1ccccc1	·	0.7	-4.5	·	2	-5	5	·	·	·
41	O=C(O)c1cccnc1SCc1cccc(Cl)c1	-1%	0.6	5.3	-3.4	19	-6	-1	-14	-17	-2.1
42	Cc1ccc(S(=O)(=O)N2CCCC2C(=O)n2nc(C)cc2C)cc1 (centres undefined)	1%	-0.1	5.1	2.8	14	-2	-28	5	2	-0.4
43	COc1ccc(C(C)NC(=O)C23CC4CC(CC(C4)C2)C3)cc1OC (centres undefined)	·	-0.3	0.6	-2.4	2	-2	1	0	2	1.2
44	CN(Cc1nc(-c2ccc(C(F)(F)F)cc2)no1)C1CCOCC1	1%	-0.2	4.8	-1.1	4	4	10	12	19	4.3
45	Cc1[nH]c2ccccc2c1SCC(=O)N1CCCCC1	3%	-1.8	-1.7	-1.5	4	-2	9	-5	-6	0.7
46	Cc1cc(C)n(/N=C/c2c[nH]c3ccccc23)c(=O)c1C#N	-6%	0.4	3.6	-3.6	21	2	2	15	15	1.4
47	COc1ccc(CCNC(=O)c2ccc(CS(=O)(=O)c3ccc(Cl)cc3)o2)cc1OC	-6%	-0.2	?	·	-8	4	13	·	·	·
48	COc1ccc(NC(=S)N2CCN(C/C=C/c3ccccc3)CC2)cc1	-4%	-0.6	0.8	4.5	-9	-1	-5	-18	-14	-3.7
49	Cc1ccc2c(c1)C1CN(C)CCC1N2CC(=O)N(C)c1ccccc1 (centres undefined)	12%	-0.1	-1.2	14	-25	-5	-8	4	4	-3.5
50	COc1ccc2[nH]c(C)c(C(=O)CN3CCN(C/C=C/c4ccccc4)CC3)c2c1	3%	1.0	-2.7	·	-26	-4	32	·	·	·
51	COc1ccc(Cl)cc1NC(=S)N1CCCC1	·	-0.2	-1.7	0.0	1	6	2	7	1	-1.1
52	O=C(NCc1ccccn1)Nc1ccccc1C(F)(F)F	3%	2.0	2.6	-1.7	-6	15	3	-16	-10	-3.6
53	COc1ccc(OC)c(NS(=O)(=O)c2ccc(-c3coc(C)n3)cc2)c1	·	-1.5	1.5	·	27	3	5	·	·	·
54	CCn1nc(C)cc1C(=O)N1CCCC(C(=O)c2ccccc2SC)C1 (centres undefined)	-4%	0.1	2.2	1.8	6	0	-21	-7	-8	-5.0
55	O=C(C1=C[C@@H]2[C@H]3C(=O)N(c4ccccc4)C(=O)[C@H]3[C@@H](C(=O)c3ccc(Cl)cc3)N2C=C1)c1ccccc1	22%	-0.8	7.5	·	4	-2	13	·	·	·
56	O=C(COC(=O)c1cccs1)c1ccccc1	-1%	-6.0	5.1	·	-5	-1	-2	·	·	·
57	Cc1ccccc1C(=O)NCCCn1ccnc1	-4%	0.8	-0.5	-11	0	-5	0	15	13	1.4
58	CCN1CCN(CCNC(=O)Nc2ccc([N+](=O)[O-])cc2)CC1	5%	-1.0	5.4	0.5	-1	0	5	16	14	-5.4
59	O=C(CC1SC(N2CCCCC2)=NC1=O)Nc1cccc(C(F)(F)F)c1 (centres undefined)	-9%	0.2	1.5	·	5	-1	-2	·	·	·
60	COc1ccc(C(C)=O)cc1CC(=O)NCCCn1ccnc1	-6%	-0.3	-0.7	2.7	6	-3	0	7	13	-2.3

Next records follow:
#	Molecule	Vif A3G	Bfl-1 A1 inh	RanGTP-Imp inh	AF4-AF9 inh	Calb FLC	Beta cell apopt	T cruzi inh	rRNA inh HTS	rRNA inh HTS OD600	rRNA inh HTS RFP
61	CSCC[C@H](NC(=O)[C@H](Cc1ccccc1)n1c(=O)[nH]c2ccccc2c1=O)C(=O)N1CCC[C@H]1C(=O)O	·	0.7	2.5	-2.1	10	-6	-16	·	·	·
62	COc1ccc(CC(=O)NCC(=O)N/N=C/c2c[nH]c3ccccc23)cc1	·	0.7	0.4	-1.5	7	-4	-10	-37*	13*	7.5*
63	CC(=C\c1ccco1)/C=C(\C#N)C(=O)NCCc1c[nH]c2ccccc12	27%	-0.9	-0.1	8.6	-11	-4	-1	-13	-5	-4.0
64	CCOc1ncccc1C(=O)OCC(=O)NCc1cccs1	·	-0.9	·	0.1	·	7	·	-2	-5	-3.0

Compound activity (PubChem)

The list is partial. The share of hits here may be higher or lower than overall.
